# HIV TAR-Tat – TAR RNA-Tat peptide displacers, HIV-1, primary screen, biochemical, FRET, FAM/TAMRA-labeled Tat | z-score (concentration not given with the values) | HIV-1 TAR RNA, Tat peptide displacement FRET; hits give high values | AID 1259389, 2018 | 100,000 tested, 0.6% active;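 note: score is relative to mean and SD of negative controls; some compounds called inactive have numbers as strong as hits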
# CDC25B-CDK2 inh – primary biochemical HTRF screen for blockers of M-phase inducer phosphatase 2 binding to CDK2/cyclin A | P30305+P24941 | HTRF CDC25B-CDK2/CyclinA binding, anti-His/anti-Flag; hits give high values | z-score (no concentration beside the values) | 94,000 tested, 0.72% active | AID 1259370, 2018;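 note: score is relative to mean and SD of negative controls; strong numbers were not always called active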
# The depositor's hits bear a star; / = no result given.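 Rule for the calls: active = z-score from 3 up in half or more of its runs; inactive = the rest.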
SMILES,HIV TAR-Tat,CDC25B-CDK2 inh
O=C(CCN1C(=O)c2cccc3cccc(c23)C1=O)Nc1nc(-c2ccccc2)cs1,/,-3.1
CC(C)NC(=O)c1cc2c(s1)-c1ccccc1SC2,-0.33,-0.63
Cc1cc(=O)[nH]c(Nc2cccc(Cl)c2)n1,1.5,-0.49
CCc1ccc(C2=NN(C(=O)c3cccnc3)C(O)(C(F)(F)F)C2)cc1 (configuration not stated),/,-0.46
N#Cc1cnn(-c2ncnc3sc(-c4ccccc4)cc23)c1N,/,-0.82
COc1ccc(-c2cc(C(F)F)n3ncc(C(=O)N4CCSCC4)c3n2)cc1,0.89,-1.3
CCC(CCC(=O)Nc1ccccn1)C(=O)O (configuration not stated),1.5,1.4
Cc1c(O)nc2sccn2c1=O,/,-2.6
Cc1cc2[nH]c(=O)c(=O)[nH]c2cc1S(=O)(=O)N(CC(C)C)CC(C)C,2.1,/
Cc1ccc(S(=O)(=O)[C@H]2CS(=O)(=O)C[C@@H]2NC2CCCC2)cc1,-0.9,-1
CCOc1ccccc1C1C=C(C(=O)O)Nc2nnnn21 (configuration not stated),1.4,/
O=S1(=O)C[C@H](N2CCCCC2)[C@@H](S(=O)(=O)c2cccs2)C1,-1.5,-2.1
COc1cc(OC)c(NCc2c(CO)cnc(C)c2O)cc1Cl,0.45,/
O=C(CN1C(=O)c2ccccc2C1=O)c1ccccc1,/,-1.8
Cc1ccc(-c2nc(/N=C/N(C)C)sc2C)cc1Cl,/,-0.92
Oc1ccc(Cl)cc1C1=NN2C(C1)c1ccccc1OC2c1ccsc1 (configuration not stated),-9.1,0.22
Cn1c(=O)n(C)c2cc(S(=O)(=O)Nc3cccc(C(=O)O)c3)ccc21,-0.69,-0.48
CCOC(=O)Cn1ccc2cc(S(=O)(=O)N3CCCC3)ccc21,1.6,-1.1
COC(=O)c1cc(=O)c2cc(OC)ccc2[nH]1,1.8,-1.5
CCCC1c2cccn2CCN1C(=O)Nc1cc(C)cc(C)c1 (configuration not stated),-1.4,/
Cc1c(NC(=O)C2COc3ccccc3C2)c(=O)n(-c2ccccc2)n1C (configuration not stated),0.41,/
Cc1ccc2oc(=O)c3cc(C(=O)N(CCN(C)C)Cc4ccco4)sc3c2c1,1.5,-1.6
CC1CCc2nn(CC(=O)NCCCN3CC(C)CC(C)C3)cc2C1 (configuration not stated),1.1,-1.2
CCN(C(=O)CSc1nc(-c2ccccc2)nc2cc(=O)[nH]n12)c1ccccc1,1.4,/
COC1=C(OC)C2(C=CC1=O)CC(C)(C)N=C2SC (configuration not stated),0.93,0.49
COc1cccc2ccc(=O)n(C)c12,-0.01,-0.51
CCCCN(C)c1nnc(NC(=O)Nc2cc(F)ccc2F)s1,1.8,-1.3
O=C1CCC(c2ccc(Cl)cc2)=NN1,0.35,0.43
Cc1cc(NC(=O)c2onc(C)c2Cl)no1,/,-0.37
S=c1[nH]c(-c2ccccc2)cn1-c1ccccc1Cl,/,-1.4
CCOc1ccc2oc(C)c(C(=O)OC)c2c1,4.3,-1.7
CC1(C)CC(=O)C2=C(C1)Nc1cc3c(cc1C2c1cccc(F)c1)OCCO3 (configuration not stated),0.63,-2.2
c1ccc(CC2CNc3ccccc3CN2)cc1 (configuration not stated),/,-0.73
O=C(O)c1ccc(N2C(=O)c3cccnc3C2=O)cc1,1.7,-1.6
Cc1nc(C)c(C(=O)NC2CCCCCCCCCCC2)s1,0.01,-1.2
CCOc1ccc(C(=O)c2ccc(OC)c(O)c2O)cc1,0.22,/
Cc1ccc(NC(=O)CSc2nc(-c3ccc(C)cc3)nc3cc(=O)[nH]n23)cc1,11,/
CCOc1ccc2[nH]c(C)c(CN3CCCCC3)c(=O)c2c1,-0.81,-2
COC(=O)C/C(=N\NC(=O)CCc1nc(-c2ccc(Cl)cc2)no1)C(=O)OC,/,-3.5
CCOc1ccc(C2CC(c3c(O)n(C)c(=O)[nH]c3=O)=Nc3ccccc3S2)cc1 (configuration not stated),2,0.47
O=C(Nc1ccc(Br)cn1)c1cccc2c1-c1ccccc1C2=O,-0.03,0.36
Cc1cc2oc3c(c(=O)c2cc1C)C(c1ccccc1F)N(CCCn1ccnc1)C3=O (configuration not stated),0.6,-3.1
CCCc1cc(=O)n2[nH]c(CCc3ccccc3)nc2n1,1.3,-0.24
O=C(Cn1ncc2c([nH]c3ccccc32)c1=O)N1CC=C(c2ccccc2)CC1,1.7,/
c1ccc2c(c1)nc(NCc1ccc3c(c1)OCO3)c1nnnn12,-3.5,0.4
CC(=O)O[C@H]1CC[C@@]2(C)C(=CC(=O)C3C4CCC(C(C)CCCC(C)C)[C@@]4(C)CCC32)C1 (some centres not stated),0.28,/
O=C(Nc1cccc2cccnc12)c1ccco1,-0.13,5.6*
CC(C)(C)C(=O)CSc1nc(N)c(C(=O)C(C)(C)C)s1,/,-2.7
N#CC(C#N)=Cc1ccc(OCc2ccsc2C#N)cc1,/,0.3
CCCOc1ccc(Br)cc1C1C(C(=O)OC)=C(C)Nc2nnnn21 (configuration not stated),-1.7,-1.8
CCSc1nnc(NC(=O)c2cc(=O)c3cc(C)c(C)cc3o2)s1,1.4,-0.5
O=C(NCC1COc2ccccc2O1)C(=O)NCC1OCCc2ccccc21 (configuration not stated),-0.24,-0.53
CCC(C)NC(=O)c1oc2ccc3c(c2c1C)C(=O)CC1(CCC(C)CC1)O3 (configuration not stated),1.1,-1.9
Cc1nn(C(C)(C)C)c(OC(=O)COc2ccccc2)c1S(=O)(=O)c1ccccc1,/,-2.4
Cn1c(=O)c2c(-c3ccccc3Cl)n(CCO)cc2n(C)c1=O,1.1,-1.7
O=C1CC(c2ccccc2Br)c2cc3c(cc2N1)CCC3 (configuration not stated),0.72,0.68
O=C(CCc1nnc2ccc(NCc3ccc(F)cc3)nn12)NCc1ccco1,1.6,/
O=C(O)c1c(-c2ccc(Cl)cc2)noc1N1CCOCC1,1.4,-0.92
CN(/C=C/C=C/C=C(C#N)C#N)c1ccccc1,/,-1.9
COc1ccc(C)cc1Nc1nc(C)nc2c1CCC2,0.66,-0.38

# Whole records as entered above. Order of screens: HIV TAR-Tat | CDC25B-CDK2 inh
# O=C(CCc1nnc2ccc(NCc3ccc(F)cc3)nn12)NCc1ccco1 as listed: 1.6 | /
# Cn1c(=O)c2c(-c3ccccc3Cl)n(CCO)cc2n(C)c1=O as listed: 1.1 | -1.7

# Carrying on:
SMILES,HIV TAR-Tat,CDC25B-CDK2 inh
Cc1ccc(-c2cc(C(=O)N3CCN(C/C=C/c4ccccc4)CC3)c3ccccc3n2)cc1C,/,-0.53
Cc1cccc(OCC(=O)OCc2cc(=O)n3cc(C)sc3n2)c1,-1.3,/
CC(=O)Oc1ccc(C2CC(=O)Nc3cc4c(cc32)OCCO4)cc1 (configuration not stated),1.6,1.1
CC1Cc2cc(S(=O)(=O)NCCN3CCCC3)ccc2N1C(=O)C1CC1 (configuration not stated),0.26,/
COC(=O)c1cc(NC(=O)c2cc(OC)c(OC)cc2[N+](=O)[O-])cc(C(=O)OC)c1,/,-3.3
CC(C)c1nc(NCCN)c(C#N)c2c1COC(C)(C)C2,-1.4,-1.5
COc1ccc2c(c1)C=C(C(=O)Nc1ccc(F)cc1F)CO2,0.28,/
Cc1ccc(S(=O)(=O)[C@H]2CS(=O)(=O)C[C@@H]2NCCC(C)C)cc1,-0.52,-1.8
O=C(c1ccc(CSCc2ccccc2F)o1)N1CCNc2ccccc2C1,/,-0.5
CC(=O)Nc1ccccc1C(=O)N1CCN(c2cccc(Cl)c2)CC1,/,-1.7
CCOc1cccc(C2c3c(oc4ccccc4c3=O)C(=O)N2c2nncs2)c1 (configuration not stated),0.93,3
CCCN1C(=O)C(Cc2nc3ccccc3c(=O)n2C)c2cc(Br)ccc21 (configuration not stated),0.53,0.18

# 18 structures from above, ordered by length of the SMILES, ascending:
SMILES,HIV TAR-Tat,CDC25B-CDK2 inh
Cc1c(O)nc2sccn2c1=O,/,-2.6
O=C1CCC(c2ccc(Cl)cc2)=NN1,0.35,0.43
Cc1cc(NC(=O)c2onc(C)c2Cl)no1,/,-0.37
CN(/C=C/C=C/C=C(C#N)C#N)c1ccccc1,/,-1.9
CC(C)NC(=O)c1cc2c(s1)-c1ccccc1SC2,-0.33,-0.63
Cc1ccc(-c2nc(/N=C/N(C)C)sc2C)cc1Cl,/,-0.92
O=C1CC(c2ccccc2Br)c2cc3c(cc2N1)CCC3 (configuration not stated),0.72,0.68
CC(C)c1nc(NCCN)c(C#N)c2c1COC(C)(C)C2,-1.4,-1.5
COc1ccc2c(c1)C=C(C(=O)Nc1ccc(F)cc1F)CO2,0.28,/
O=C(Nc1ccc(Br)cn1)c1cccc2c1-c1ccccc1C2=O,-0.03,0.36
O=C(c1ccc(CSCc2ccccc2F)o1)N1CCNc2ccccc2C1,/,-0.5
CCOc1cccc(C2c3c(oc4ccccc4c3=O)C(=O)N2c2nncs2)c1 (configuration not stated),0.93,3
COc1ccc(-c2cc(C(F)F)n3ncc(C(=O)N4CCSCC4)c3n2)cc1,0.89,-1.3
Cn1c(=O)n(C)c2cc(S(=O)(=O)Nc3cccc(C(=O)O)c3)ccc21,-0.69,-0.48
O=S1(=O)C[C@H](N2CCCCC2)[C@@H](S(=O)(=O)c2cccs2)C1,-1.5,-2.1
CCN(C(=O)CSc1nc(-c2ccccc2)nc2cc(=O)[nH]n12)c1ccccc1,1.4,/
Cc1cc2[nH]c(=O)c(=O)[nH]c2cc1S(=O)(=O)N(CC(C)C)CC(C)C,2.1,/
COC(=O)c1cc(NC(=O)c2cc(OC)c(OC)cc2[N+](=O)[O-])cc(C(=O)OC)c1,/,-3.3

# Carrying on:
SMILES,HIV TAR-Tat,CDC25B-CDK2 inh
Cc1ccccc1CN1CCN(c2ccccn2)CC1,/,0.21
CCCc1c(C)nc2ncnn2c1NCc1cccs1,1.2,-1.5
Cc1cc(-c2ccc(S(=O)(=O)Nc3cccc(-c4ccno4)c3)s2)on1,0.89,/
CNC(=O)C(C)n1c(C)c2cnn(-c3ccccc3)c(=O)c2c1C (configuration not stated),-0.47,-0.37
CN(C)CCN(Cc1ccccc1)c1ncnc2onc(-c3ccc(Cl)cc3)c12,-2.1,-1.4
CCOC(=O)C1CCN(C(=O)c2noc3ncnc(N4CCCC4)c23)CC1,0.02,/
CCC(C(=O)NC1CC1)n1ccc2cc(S(=O)(=O)N3CCCCC3)ccc21 (configuration not stated),0.66,/
COc1ccc(OC)c(C(=O)c2c(N)c(-c3nc(-c4ccc5c(c4)OCO5)cs3)c3ccccn23)c1,11,-4.9
CC(=O)N1N=C(c2ccc([N+](=O)[O-])s2)OC1c1cccc2ccccc12 (configuration not stated),-4.3,/
CCC(C)NC(=O)c1cc2c(=O)n3ccccc3nc2s1 (configuration not stated),/,-0.86
CCCOc1ccc(-c2nn(-c3ccccc3)cc2C2NC(=O)NC(C)=C2C(=O)OC(C)C)cc1C (configuration not stated),/,-1.2
CN1CCN(c2nc(N)c([N+](=O)[O-])c(Nc3ccccc3)n2)CC1,1.5,/
Cc1nc(SCC(=O)c2ccc(O)cc2O)n[nH]1,0.58,-1.5
COc1ccc(NS(=O)(=O)c2ccc3oc(=O)c4ncn(C)c4c3c2)cc1Cl,1.1,-1.4
O=C1c2cccnc2C(Nc2ccccc2F)N1Cc1cccs1 (configuration not stated),1.6,-1.2
Cc1ccc2[nH]c(CSc3nnc(COc4ccc(C(C)(C)C)cc4)n3C)cc(=O)c2c1,1.8,/
Cc1ccc2ncc(C(=O)Nc3ccc4c(c3)OCCO4)c(=O)n2c1,1.6,-1.6
O=C(c1ccc(Cn2c(=O)c3cccn3c3cccnc32)cc1)N1CCOCC1,-1.2,/
Cc1ccc(-c2noc(-c3ccccc3C)n2)cc1,0.43,/
COc1cc(NC(=O)C(CCS(C)(=O)=O)N2Cc3ccccc3C2=O)cc(OC)c1 (configuration not stated),1.5,/
CCCCOc1ccc(C(C)N)cc1 (configuration not stated),0.86,/
COc1cccc(NC(=S)NNC(C)(C)C)c1,/,-0.1
COc1ccc(C(=O)c2cnc3ccc(OC)cc3c2N2CCOCC2)cc1,-0.3,-0.6
CCOC(=O)c1sc(N2C(=O)c3oc4ccc(F)cc4c(=O)c3C2c2ccccc2F)nc1C (configuration not stated),0.49,-0.37
Cc1ccc(C2NC(CC(C)C)(C(=O)O)C3C(=O)N(c4ccc(F)cc4)C(=O)C23)cc1 (configuration not stated),/,0.78
CC(C(=O)O)n1nc(-c2ccccc2)c2ccccc21 (configuration not stated),-0.21,-1.6
CC(C)CCNC(=O)C1c2c(n(C)c3ccccc23)SCC(=O)N1CCCOC(C)C (configuration not stated),0.16,/
O=S(=O)(NCCn1c(-c2ccc(F)cc2)nc2cccnc21)c1cccc2nsnc12,-0.66,/
Nc1cc(Cl)ccc1Oc1ccccc1,2.7,-1.8
CC(C)c1cccc(C(C)C)c1NC1=NS(=O)(=O)c2ccccc21,/,-1.5
CCOc1ccc(-c2noc(C3CCCN(S(=O)(=O)c4ccc(C(C)C)cc4)C3)n2)cc1OC (configuration not stated),2.4,/
COc1ccc(/C(C)=N/O)cc1CN1CCOCC1,/,-2.1
CC1=C(C(=O)OCCOC(C)C)C(c2cccc(F)c2)C2=C(CC(C)(C)CC2=O)N1 (configuration not stated),2.4,-1.6
Fc1ccc(CNc2ncnc3c2nc2n3CCCCC2)cc1,-0.21,/
CNc1oc(COc2ccc(F)cc2)nc1C#N,1,-1.2
COc1ccc(C2N3CC4(C)CN2CC(C)(C3)C4=O)cc1OC (configuration not stated),-1.1,0.09
CC1(C(=O)NC2CCCC2)Cn2c(cc3ccccc32)C(=O)N1CCN1CCOCC1 (configuration not stated),1.1,/
CSc1cccc(Nc2c(-c3ccc(C(C)C)cc3)c(=O)c2=O)c1,1.1,/
O=C(NCC(c1ccco1)N1CCOCC1)c1cccs1 (configuration not stated),0.55,-0.28
O=c1[nH]c(SCc2cccc3ccccc23)nc2c1CCC2,1.9,-0.8
O=C(NC1CCCC1)C1CCN(c2nc3cccnc3s2)CC1,0.94,/
O=C(CSc1nc(-c2ccco2)cc(C(F)(F)F)n1)NCCCn1ccnc1,2.1,1.9
O=c1[nH]cc(N2CCN(Cc3ccccc3)CC2)c(=O)[nH]1,/,-1.7

# Assay outcomes (PubChem)
